RGS16-Gao = modulates binding between human RGS16 and Galphao; bead-based flow cytometry RGS16-Galphao binding, fluorescence; actives lie on both sides; binding response (% of control), % at 10 µM; AID 1441; 0.38% of 220,000 active;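 active means below 25% or above 175%, edge rows of some plates excepted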;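 further: Galphao activated by GDP with aluminum fluoride before binding; 100% = wells without compound and 0% = beads without RGS; some results beyond the cut were filed as inactive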
Target sequence (O15492 whole entry, looked up): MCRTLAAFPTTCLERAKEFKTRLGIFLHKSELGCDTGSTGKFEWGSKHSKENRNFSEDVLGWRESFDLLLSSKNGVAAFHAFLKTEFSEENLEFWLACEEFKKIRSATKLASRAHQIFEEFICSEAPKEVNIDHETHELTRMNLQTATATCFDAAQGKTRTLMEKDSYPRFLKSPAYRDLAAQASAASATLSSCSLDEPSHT
Target sequence (P09471 whole entry, looked up): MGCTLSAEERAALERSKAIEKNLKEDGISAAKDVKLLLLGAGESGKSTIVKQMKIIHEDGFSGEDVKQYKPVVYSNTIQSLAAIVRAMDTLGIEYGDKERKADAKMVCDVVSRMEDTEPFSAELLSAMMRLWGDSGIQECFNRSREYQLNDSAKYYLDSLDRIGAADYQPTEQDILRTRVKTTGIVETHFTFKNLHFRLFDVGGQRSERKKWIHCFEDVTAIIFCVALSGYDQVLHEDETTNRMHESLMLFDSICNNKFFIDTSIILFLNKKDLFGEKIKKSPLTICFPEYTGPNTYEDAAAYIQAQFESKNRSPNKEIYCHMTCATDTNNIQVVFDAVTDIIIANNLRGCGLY
HSV augment = HSV replication enhancement; HSV replication augmentation in cells, fold increase; maximum fold increase; 0.005% of 220,000 active; AID 1956;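 active means peak rise of 1.5-fold or more in the series; tested in PC3 cells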;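 further: first round at 10 µM; read as green reporter fluorescence; hits show the peak of a series up to 25 µM; 1 = signal of infected wells without compound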
PKD1 inh = PKD1 (human) kinase inhibition; Q15139; PKD1 kinase fluorescence polarization assay; inhibition, %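 (about 10 µM by stock and volumes)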; 0.056% of 200,000 active;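 active means inhibition of 50% or more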;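 further: controls were vehicle for no effect and a reference inhibitor for full effect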
GALR2 ag = activates the human galanin receptor 2; O43603; GALR2-expressing cells, agonist activation read-out; activation, %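 (tested at 5 µM)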; 0.48% of 140,000 active; AID 803;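 active means above mean plus 3 SD of all compounds, about 5% in these data, not always enough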;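 further: 0% = vehicle buffer wells and 100% = reference agonist at full effect; tested in CHO reporter cells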
Target sequence (O43603 whole entry, looked up): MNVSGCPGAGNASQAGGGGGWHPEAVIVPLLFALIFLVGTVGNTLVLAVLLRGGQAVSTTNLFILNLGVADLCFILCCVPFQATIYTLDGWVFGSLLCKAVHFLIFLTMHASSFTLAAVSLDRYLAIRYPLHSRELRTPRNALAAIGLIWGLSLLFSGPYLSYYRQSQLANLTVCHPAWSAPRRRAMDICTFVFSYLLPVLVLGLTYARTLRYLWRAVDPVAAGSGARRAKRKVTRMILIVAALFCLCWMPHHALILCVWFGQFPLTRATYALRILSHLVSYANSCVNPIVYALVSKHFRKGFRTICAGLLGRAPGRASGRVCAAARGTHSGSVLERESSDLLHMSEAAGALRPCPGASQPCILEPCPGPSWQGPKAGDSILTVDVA
Insulin prom inh = TRM-6 insulin promoter activity inhibition; TRM-6 cells (human fetal islet line), insulin promoter-eGFP reporter, imaging; reporter expression induced with tamoxifen; inhibition, % at 2 µM; 0.9% of 130,000 active; AID 1273;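 active means inhibition above the mean plus 3 SD, with well images judged a real hit on visual review, cut at about 60% in these data, passing the limit was not always enough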
Insulin prom inh cell count = recorded beside Insulin prom inh, whose call it bears; normalized cell count, %; measured here: cell count, toxicity; reference of the scale not given here;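 cells exposed to compound for 48 h; stained nuclei by imaging scaled within each plate; lower means fewer cells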
HSV augment primary fold = recorded beside HSV augment, whose call it bears; fold increase; compound at 10 µM; measured here: primary screen fold increase 10 uM; tested in PC3 cells;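 GFP signal in the first replicate; 1 = infected wells without compound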
Starred values were filed as active, the others as inactive; i = inactive; / = no result given.

SMILES	RGS16-Gao	HSV augment	HSV augment primary fold	PKD1 inh	GALR2 ag	Insulin prom inh	Insulin prom inh cell count
O=C(CN1C(=O)c2ccccc2S1(=O)=O)NCCSc1ccccc1	95.9	i	1.02	8.6	-0.3	/	/
Cn1c(O)c(N=NC(=O)c2ccccc2O)c2ccccc21	102.8	i	0.87	-4.0	/	/	/
CCn1c(SCc2ccc([N+](=O)[O-])cc2)nnc1C(C)NC(=O)c1ccccc1Br (stereo unspecified)	57.9	i	0.97	-1.3	-0.4	/	/
Cc1cc(/C(N)=N/OC(=O)c2ccccc2Cl)no1	103.7	i	0.96	/	/	/	/
Cc1ccc(CCNC(=O)CCSCc2ccc(Cl)cc2)cc1	100.9	i	1.02	7.4	-1.0	-14.3	111.3
CCc1cccc(CC)c1NC(=O)COC(=O)C1(c2ccc(Cl)cc2)CCCC1	99.3	i	0.9	1.6	-0.6	/	/
CC(O)CNc1nc2sc3c(c2c(=O)n1Cc1ccco1)CCCCC3 (stereo unspecified)	100.5	i	0.97	/	/	/	/
Cc1nn(-c2nnc(C)c(=O)[nH]2)c(C)c1SCC(=O)Nc1ccc(C(C)C)cc1	101.6	i	1.07	-9.9	-0.3	-15.8	159.4
COc1ccc(-n2c(Cc3cccn3C)nnc2SCC(=O)Nc2ccc(C(C)=O)cc2)cc1	105.9	i	0.94	-9.8	-5.2	/	/
COc1cc(/C=N/Nc2nc3c(c(=O)n(C)c(=O)n3C)n2Cc2ccccc2)ccc1OC(=O)c1ccco1	236.4	i	0.88	1.0	0.8	/	/
O=C(c1cnc2ccccc2n1)N1CCN(c2ccc(C(F)(F)F)cn2)CC1	95.5	i	0.89	/	/	/	/
CCCCNC(=O)c1ccc(S(=O)(=O)c2ccc(Cl)cc2)c(NC(C)=O)c1	95.4	i	0.85	-6.5	-5.0	18.8	117.9
Cc1nc(SCC(=O)NCc2ccco2)[nH]c(=O)c1C	96.7	i	0.84	-2.1	-1.3	-2.6	41.0
COc1ccc(CNc2nc3nc(C)c(Cl)c(C)n3n2)cc1OC	/	i	0.96	-7.8	1.7	-2.6	173.3
CC12CCC(C(=O)n3c1nc1ccccc13)C2(C)C (stereo unspecified)	103.5	i	0.99	3.7	-0.6	/	/
CCCOC(=O)c1cc(-c2ccc(/C=C3/C(=O)N(C)C(=O)C(C#N)=C3C)o2)ccc1Cl	/	/	/	-1.3	-1.8	-44.8	73.9
CC1(OC(=O)C2CCCC2)C(=O)C=C2C=C(c3ccsc3)N(C3CC3)C=C2C1=O (stereo unspecified)	100.7	i	1.12	/	/	/	/
O=C1/C(=C/c2ccccc2)CCCc2ccccc21	104.0	i	0.94	-16.5	-1.1	30.8	137.3
CCC(C)NC(=O)C1=C(C)C(=O)OC12CCC(C)CC2 (stereo unspecified)	104.0	i	0.86	-10.6	-2.3	-80.0	57.9
CCC1CO/C(=C(\C(Cl)=C(Cl)Cl)[N+](=O)[O-])N1 (stereo unspecified)	94.2	i	0.89	-4.7	/	/	/
FC(F)(F)c1cccc(NC(=S)Nc2ccc(Cl)cc2Cl)c1	96.5	i	0.94	0.6	-0.7	0.0	112.3
COc1ccc(C(=O)N2CCN(c3ccc(C)c(C)c3)CC2)cc1OC	103.0	/	/	2.9	-1.6	/	/
CCOC(=O)c1cccc(C(=O)Nc2nc3ccc(OC)cc3s2)n1	95.1	i	0.96	3.9	/	/	/
CCn1ncc([N+](=O)[O-])c1C(=O)NC1CCCCC1	100.9	i	0.95	-0.6	/	/	/
COc1cccc(CNCCc2c[nH]c3ccccc23)c1OCc1ccc(F)cc1	94.9	i	0.97	-1.7	-1.1	-51.7	118.7

Random excerpt: 6 compounds from above.
SMILES	RGS16-Gao	HSV augment	HSV augment primary fold	PKD1 inh	GALR2 ag	Insulin prom inh	Insulin prom inh cell count
CCC1CO/C(=C(\C(Cl)=C(Cl)Cl)[N+](=O)[O-])N1 (stereo unspecified)	94.2	i	0.89	-4.7	/	/	/
COc1cc(/C=N/Nc2nc3c(c(=O)n(C)c(=O)n3C)n2Cc2ccccc2)ccc1OC(=O)c1ccco1	236.4	i	0.88	1.0	0.8	/	/
COc1ccc(CNc2nc3nc(C)c(Cl)c(C)n3n2)cc1OC	/	i	0.96	-7.8	1.7	-2.6	173.3
Cn1c(O)c(N=NC(=O)c2ccccc2O)c2ccccc21	102.8	i	0.87	-4.0	/	/	/
CCn1ncc([N+](=O)[O-])c1C(=O)NC1CCCCC1	100.9	i	0.95	-0.6	/	/	/
FC(F)(F)c1cccc(NC(=S)Nc2ccc(Cl)cc2Cl)c1	96.5	i	0.94	0.6	-0.7	0.0	112.3

Looked up above:
RGS16-Gao with CCc1cccc(CC)c1NC(=O)COC(=O)C1(c2ccc(Cl)cc2)CCCC1 stands at 99.3
PKD1 inh with Cc1ccc(CCNC(=O)CCSCc2ccc(Cl)cc2)cc1 stands at 7.4
HSV augment primary fold with O=C(c1cnc2ccccc2n1)N1CCN(c2ccc(C(F)(F)F)cn2)CC1 stands at 0.89
GALR2 ag with COc1ccc(C(=O)N2CCN(c3ccc(C)c(C)c3)CC2)cc1OC stands at -1.6

The results go on.
SMILES	RGS16-Gao	HSV augment	HSV augment primary fold	PKD1 inh	GALR2 ag	Insulin prom inh	Insulin prom inh cell count
Cc1c(OC(C(=O)O)c2ccccc2)ccc2c(-c3ccccc3)cc(=O)oc12 (stereo unspecified)	103.0	i	1	/	/	/	/
O=C(N/N=C\CCc1ccccc1)c1ccco1	104.9	i	0.96	2.9	-1.2	-33.3	95.8
O=C(CN1CCN(C(=O)c2c(F)cccc2F)CC1)Nc1ccccc1F	107.5	i	0.88	-6.9	-1.9	3.9	126.9
COCc1cc(C)nc(SCC[N+](C)(C)CC(=O)Nc2cccc(C)c2)c1C#N	106.5	i	1.02	-0.6	/	-50.0	97.1
Cc1sc2nc(CN3CCOCC3)nc(Cl)c2c1C	102.3	i	0.95	-5.7	-1.2	-33.3	91.0
O=C(N/N=C\c1ccc[nH]1)C1COc2ccccc2O1 (stereo unspecified)	100.5	i	1.04	/	/	/	/
Cc1cccc(CSc2nc3[nH]ncc3c(=O)[nH]2)c1	103.4	i	0.91	8.6	/	-22.2	126.5
COc1ccc(CCNC(=O)C2CC3Cn4c(nc5ccccc54)C3N2C)cc1 (stereo unspecified)	74.3	i	0.94	/	/	/	/
CC1(C)CC(=O)c2cc3c(nc2C1)CC(C)(C)CC3=O	54.1	i	1.12	0.6	0.3	/	/
O=C(OCCN1CCOCC1)C(c1ccccc1)c1ccccc1	102.4	i	0.97	-10.9	-1.4	/	/
COc1cccc(C2CCCN2Cc2nc(CCC(C)C)no2)c1 (stereo unspecified)	105.1	i	0.82	-4.7	/	/	/
Cc1ccc(N(CC(=O)NCCc2ccc(F)cc2)S(=O)(=O)c2ccc(Cl)c([N+](=O)[O-])c2)c(C)c1	98.2	i	0.68	-0.1	1.3	/	/
CN(C)/C=N/c1ncc(C(=O)c2ccc(Cl)cc2)s1	100.4	i	0.83	-6.0	-0.7	-6.8	113.3
CCN(CCCNC(=O)c1ccc(N2CCCC2=O)cc1)c1cccc(C)c1	102.5	i	1.01	-3.6	-2.7	/	/
CC(=O)C1=C(C)OC(N)=C(C#N)C1c1cccc2ccccc12 (stereo unspecified)	104.8	i	0.97	/	/	/	/
CCCCn1c2c(c(=O)n(C)c1=O)C(c1ccc(OC)cc1)N1CCCCCC1=N2 (stereo unspecified)	100.3	i	0.83	-3.9	-1.8	/	/
CSC1=NC(=O)/C(=C\c2cccc3ccccc23)S1	112.6	i	0.92	-7.9	/	11.1	121.1
N/C(=N\OC(=O)Cc1ccccc1[N+](=O)[O-])c1cccc(Br)c1	98.0	i	0.96	4.0	/	/	/
CC(=O)c1ccc(NS(=O)(=O)c2c(C)cc(C)cc2C)cc1	116.0	i	1.1	-2.3	/	/	/
Cc1cc(N2CCOCC2)cc(C)[n+]1[O-]	105.6	i	0.97	5.5	-3.7	/	/
COc1ccc(NC(=O)/C(C#N)=C/c2ccc(OCc3ccccc3F)cc2)cc1	134.2	i	1.03	-5.6	-0.8	7.4	69.1
CC1CC(C)CN(c2cc3c(cc2[N+](=O)[O-])C(=O)N(c2ccccc2)C3=O)C1 (stereo unspecified)	109.0	i	1.05	-7.2	-0.8	20.0	70.0
CCOC(=O)C1(Cc2ccccc2)CCN(Cc2cn(CC(=O)OC)c3ccccc23)CC1	100.5	i	1.08	5.1	/	/	/
Cc1ccc2nc3cc([N+](=O)[O-])cc([N+](=O)[O-])c3cc2c1	77.3	i	0.76	-8.5	/	-488.2	6.5
Cc1cc(C)nc(N2CCC(C(=O)NNC(=O)c3ccc(Cl)cc3)CC2)n1	114.9	i	0.89	/	/	/	/
Next structures.
SMILES	RGS16-Gao	HSV augment	HSV augment primary fold	PKD1 inh	GALR2 ag	Insulin prom inh	Insulin prom inh cell count
CCOc1ccc(NC(=O)c2nsc(Cl)c2Cl)cc1	100.1	i	0.76	-4.5	/	/	/
CCCNC(=O)Cn1c(=O)n(C)c2ccccc21	84.2	i	0.89	/	/	/	/
COC(=O)c1c(C)noc1-c1snnc1C	100.1	i	0.98	/	/	/	/
COc1c(Br)cc([N+](=O)[O-])c(OC)c1C(=O)NC(=O)Nc1cc(Cl)cc(Cl)c1	103.7	i	0.77	/	/	/	/
O=C(Nc1cccc2ccccc12)N1CCCN(c2c(Cl)cncc2Cl)CC1	100.0	i	0.84	/	/	/	/
COc1ccc(C/C(N)=N/OC(=O)c2ccc(Cl)cc2)cc1	100.9	i	0.86	-6.0	/	30.8	138.6
CCCOc1ccc(C2C(C(=O)c3ccc(C)o3)=C(O)C(=O)N2CCN2CCOCC2)cc1OC (stereo unspecified)	101.3	i	0.9	-6.2	-2.3	13.3	74.2
CC(=O)Nc1cc(NC(C)=O)ncn1	96.4	i	0.95	/	/	/	/
O=S(=O)(c1cccc(C(F)(F)F)c1)N1CCN(C(=S)NC2CC2)CC1	85.9	i	1.03	19.8	0.8	17.9	123.8
CCC1CCCCN1C(=S)NC(=O)c1cc(S(=O)(=O)N2CCOCC2)ccc1C (stereo unspecified)	97.9	i	0.97	/	/	/	/
O=[N+]([O-])c1ccc(Oc2ccc(/C=N/O)cc2)nc1	108.6	i	0.97	-7.3	/	/	/
CC(C)CNC(=O)CO/N=C/c1ccccc1Cl	96.0	i	0.95	-6.8	/	-108.3	59.3
C=CCSc1nc(=O)n2ccc(C)cc2n1	93.0	i	1.03	-8.9	/	-66.7	114.8
Cc1ccc(CN(c2ccc(C(=O)NCc3cccnc3)cc2)S(C)(=O)=O)cc1	98.1	i	0.83	-4.2	0.5	-26.7	149.6
Cc1ccc(OCCOc2ccc(Br)cc2)c([N+](=O)[O-])n1	127.2	i	0.98	6.4	-1.1	46.1	124.5
c1ccc(CNc2c3c(nc4ncnn24)CCC3)cc1	101.7	i	1	/	/	/	/
Cc1ccc(CSc2nc3ccccc3c(=O)n2Cc2ccco2)cc1	96.8	i	0.917	-8.8	-1.8	15.4	91.9
CN(C)C(CNC(=S)Nc1ccccc1)c1cccnc1 (stereo unspecified)	106.7	i	1	2.2	-1.1	/	/
O=C1CC(c2ccccc2Cl)Cc2c1cnn2-c1nc2ccccc2s1 (stereo unspecified)	50.8	i	1.13	9.4	-2.3	-2.9	108.9
CC(C)(C)NC(=O)C(c1ccccc1)N(Cc1cccs1)C(=O)c1csnn1 (stereo unspecified)	103.8	i	0.96	-3.4	-1.3	9.5	108.4
COC(=O)c1cc(NC(=O)CC2NCCNC2=O)cc(C(=O)OC)c1 (stereo unspecified)	101.2	i	1.05	-5.8	-1.0	28.9	115.9
COc1cccc(NC(=O)N2CCN(c3nnnn3-c3ccccc3)CC2)c1	99.9	i	0.86	4.2	/	/	/
COc1ccc(C(=O)CSc2nc3ccc([N+](=O)[O-])cc3[nH]2)cc1	101.1	i	1.07	9.6	-0.7	17.6	100.0
CCCCC1(C(=O)OCC)CC(CN2CCOCC2)OC1=O (stereo unspecified)	100.1	i	1	/	/	/	/
Cc1cc(Nc2nc3ccccc3nc2Cl)n(-c2ccccc2C)n1	104.2	i	0.81	-3.5	0.2	20.5	198.8
Remaining list, next part:
SMILES	RGS16-Gao	HSV augment	HSV augment primary fold	PKD1 inh	GALR2 ag	Insulin prom inh	Insulin prom inh cell count
COc1cc(CCCN2C(=O)C(=O)NC[C@@H]2CCCCN)cc(OC)c1OC	100.0	i	0.965	/	/	/	/
NC(=O)C1CCN(C(c2ccccc2Cl)c2nnnn2CC2CCCO2)CC1 (stereo unspecified)	101.6	i	0.96	4.0	-2.1	-9.7	84.5
COC(=O)CSc1nc(SCc2ccccc2Cl)nc2c1CCCC2	105.3	i	0.99	-1.5	-3.2	-16.7	85.5
CCN(C(=O)c1ccc(Cl)cc1[N+](=O)[O-])c1ccccc1C	100.7	i	1.01	4.2	/	/	/
c1n[nH]c(NC2=NCCC2)n1	97.5	i	0.95	-4.7	-0.7	/	/
COc1ccc(CSc2nc(C)cc(=O)[nH]2)cc1Br	116.0	i	0.92	-4.4	0.7	-354.6	0.5
CC(OC(=O)c1ccc(Cl)c(S(=O)(=O)Nc2ccc(F)cc2)c1)C(=O)NC(N)=O (stereo unspecified)	100.3	i	1.25	/	/	/	/

Source: PubChem
